TRPV1 PAM: human TRPV1 potentiation; TRPV1-expressing cells, Fluo-8 calcium influx, capsaicin EC20 potentiation; host cell line not named in the record; control for the full effect not named in the record; potentiation, % at 8.33 µM; 320,000 compounds, 0.02% hits; AID 540277; active means potentiation above 80%; inconclusive means 30% to 80%; inactive means below 30%; note: 0% is about no effect
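TRPV1-expressing cells were cultured overnight at 35.5C and loaded with Fluo-8 calcium dye for 40 to 90 min at room temperature. After a 10 s baseline, compound was added and calcium influx was read kinetically for 3 min (ex 480/em 520 nm).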
CtBP-E1A blk: blocks the CtBP interaction with E1A; activity change, % (concentration not given with the values); 340,000 compounds, 0.49% hits; AlphaScreen GST-E1A/His-CtBP binding, 1536-well; stronger effect = lower value; control for the full effect not named in the record; AID 651724; in the data active means activity change below about -65%; inconclusive means about -30% to -65%; inactive means above about -30%; note: % is set by controls: 0 for no effect and ±100 for the full control effect
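In 5 uL wells, 23 nL compound meets equimolar GST-E1A and His-CtBP (5X stock 125 nM each) for 2 h, 37 °C. Beads (5X, 50 ug/mL) then 1 h, 37 °C, dark.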
D2 PAM: human D2 receptor positive allosteric modulation. potentiation, % (no concentration beside the values). 360,000 compounds, 0.23% hits. DiscoveRx D2 beta-arrestin cells, luminescence, 90 min; 100% = 57 uM dopamine signal. P14416; active = potentiation of 50% or more; inconclusive = 30% to 50%; inactive = 30% or less;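 note: compound concentration not given in the record; tested on top of an EC20 dose of dopamine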
Target sequence (P14416 whole entry, looked up): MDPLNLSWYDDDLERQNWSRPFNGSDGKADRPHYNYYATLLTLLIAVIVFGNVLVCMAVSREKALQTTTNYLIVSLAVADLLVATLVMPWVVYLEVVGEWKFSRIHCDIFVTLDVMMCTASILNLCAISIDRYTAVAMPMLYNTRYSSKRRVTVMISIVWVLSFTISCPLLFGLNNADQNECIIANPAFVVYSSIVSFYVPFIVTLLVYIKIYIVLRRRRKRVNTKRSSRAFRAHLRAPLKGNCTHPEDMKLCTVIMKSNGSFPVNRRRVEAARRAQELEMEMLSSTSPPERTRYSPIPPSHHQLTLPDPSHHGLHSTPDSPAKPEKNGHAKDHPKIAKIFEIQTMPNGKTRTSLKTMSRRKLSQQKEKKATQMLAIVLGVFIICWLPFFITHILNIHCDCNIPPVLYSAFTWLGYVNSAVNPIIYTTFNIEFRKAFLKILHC
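D2 cells co-treated with compound plus 50 nM dopamine (EC20) for 90 min at 37 deg C to detect potentiation. Beta-arrestin recruitment was read as enzyme-fragment luminescence after 1 h at ambient temperature. Full response was set by 57 uM dopamine.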
TRPML1 inh: blocks the human TRPML1 channel; Q9GZU1; TRPML1-inducible cells, Ca2+ dye fluorescence, FDSS; stronger effect = lower value; inhibition of EC80 agonist-evoked calcium signal; activity change, negative = inhibition, % (concentration not given with the values); 390,000 compounds, 0.02% hits; AID 624415; in the data active means activity change below about -50%; inconclusive means about -30% to -50%; inactive means above about -30%;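 note: stimulus is agonist 54-4 at its EC80 concentration; % is set by controls: 0 for no effect and ±100 for the full control effect; the text of the record puts the active cut at -80%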
Target sequence (Q9GZU1 whole entry, looked up): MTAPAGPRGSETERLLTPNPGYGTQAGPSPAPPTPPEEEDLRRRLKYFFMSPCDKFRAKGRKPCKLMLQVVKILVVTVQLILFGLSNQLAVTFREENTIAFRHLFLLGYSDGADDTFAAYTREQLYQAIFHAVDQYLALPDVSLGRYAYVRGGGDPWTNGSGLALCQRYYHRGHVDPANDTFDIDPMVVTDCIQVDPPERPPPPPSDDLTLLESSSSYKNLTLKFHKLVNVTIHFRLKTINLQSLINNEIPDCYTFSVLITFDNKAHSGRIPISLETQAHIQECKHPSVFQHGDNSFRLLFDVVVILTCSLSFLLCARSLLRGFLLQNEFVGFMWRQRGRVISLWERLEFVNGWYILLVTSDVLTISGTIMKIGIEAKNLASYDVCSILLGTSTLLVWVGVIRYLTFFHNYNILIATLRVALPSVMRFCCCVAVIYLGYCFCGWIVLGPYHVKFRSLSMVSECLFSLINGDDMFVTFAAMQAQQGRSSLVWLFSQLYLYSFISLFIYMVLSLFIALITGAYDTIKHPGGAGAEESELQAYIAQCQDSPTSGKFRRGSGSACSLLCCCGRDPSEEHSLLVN
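Calcium fluorescence in TRPML1-DL cells induced overnight with Tet: a 110 s read after compound pin addition, then a 110 s antagonist read after challenge with 54-4 at 4 uM final (EC80).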
Six1-Eya2 inh: blocks human Six1 binding to Eya2; AID 651725; AlphaScreen GST-Six1/His-Eya2 binding, biochemical; stronger effect = lower value; control for the full effect not named in the record; activity change, % (no concentration beside the values); 360,000 compounds, 0.56% hits; Q15475+O00167; in the data active = activity change below about -65%; inconclusive = about -30% to -65%; inactive = above about -30%; note: % is set by controls: 0 for no effect and ±100 for the full control effect
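Six1/Eya2 binding was read as AlphaScreen signal after compounds were pinned into GST-Six1 plus His-tagged Eya2 (5X stock 250/500 nM) in pH 8.0 Tris/NaCl/TCEP buffer, beads added, then incubated 1 h, 37 C, dark.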
TRPML1 ag: agonists of human TRPML1 channel; Q9GZU1; AID 624414; TRPML1-expressing cells, Ca2+ dye fluorescence, FDSS; host cell line not named in the record; reference of the full effect not given here; 410,000 compounds, 0.12% hits; activation, % (concentration not given with the values); in the data active = activation above about 50%; inconclusive = about 30% to 50%; inactive = below about 30%; note: 0% is about no effect; the text of the record puts the active cut at 80%
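Tetracycline-induced TRPML1-DL cells are seeded and incubated overnight before loading with a no-wash Ca2+ dye and quencher. Agonist activity is taken from the 110 s fluorescence read following compound pin-transfer on an FDSS, before EC80 54-4 challenge.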
Numbers without * were called inactive; ? = inconclusive; . = no result given; & = joins results of further samples.

Values run as follows: TRPV1 PAM, CtBP-E1A blk, D2 PAM, TRPML1 inh, Six1-Eya2 inh, TRPML1 ag
> O=C(CSc1nnnn1C1CCCC1)N1CCOCC1
→ 3, ., -17, -12, 4, -0.2
> COc1ccc(OC(=O)c2ccc3nsnc3c2)cc1
→ -16, -1, -23, -9, -9, 0.5
> CCc1ccc(S(=O)(=O)NCCOc2cccc3cccnc23)cc1
→ -3, 0, -14, -10, 3, -0.9
> CCCn1c(SCC(=O)NNC(=O)c2ccc(OC)cc2)nnc1C(C)C
→ 7, 16, -7, -10, 4, -0.9
> CC(=O)Nc1ccc(NC(=O)[C@@H]2CCCC[C@@H]2C(=O)O)cc1
→ 3, 3, -3, 11, 6, 1.1
> CCOC(=O)c1c(C)[nH]c(C)c1C(=O)COC(=O)c1cccc(S(=O)(=O)NC)c1
→ 0, 0, 0, -2, -2, -1.1
> CCn1cc(CN(C)S(=O)(=O)c2ccc3ccccc3c2)c(C)n1
→ -10, 3, -12, -4, -3, 0.8
> COc1ccc(CCNC(=O)C2CCN(S(=O)(=O)c3ccc(F)cc3)CC2)cc1
→ 26, -9, -5, 0, 6, 0.8
> O=S(=O)(Nc1ccc(N2CCOCC2)cc1)c1ccc2ccccc2c1
→ 7, 3, -18, 9, -10, 0.6
> CN1CCN(C(=S)NC(=O)/C=C/c2cccc3ccccc23)CC1
→ -6, 11, -19, -2, -2, -0.5
> CC(C)(C)C(=O)Nc1ccccc1C(=O)NCCC(=O)Nc1ccccc1
→ 21, 3, -4, -18, 1, -0.3
> CCCCCCCSc1nc(N)cc(=O)[nH]1
→ 16, -5, 16, -20, 13, 0.8
> COc1ccc(C(C)=O)cc1CC1(C)C(=O)Nc2ccc(-c3ccccc3OC)cc21 (stereo not drawn)
→ ., -1, -14, ., -7, -0.5
> O=C(CSc1nnc([C@@H]2CCCN2)o1)c1ccc(Cl)cc1
→ 4, 1, -8, -8, -2, -0.4
> CCOc1ccccc1N(CC(=O)NC1CCCCC1)C(=O)c1nsc(Cl)c1Cl
→ -19, 2, -6, 5, 3, 1.8
> CCCC(=O)NC(=S)Nc1ccc(CN2CCOCC2)cc1
→ 14, 7, -2, 1, -1, -0.7
> O=Cc1ccc2cccnc2n1
→ -14, -16, -67, 1, 10, -0.2
> Cc1c(C(=O)O)oc2c1/C(=N\O)CC(C)(C)C2
→ -13, -1, 2, -4, 4, 0.6
> COc1ccccc1C1CC(c2cccs2)=Nc2ccccc2S1 (stereo not drawn)
→ 21, -10, -34, 4, -18, -0.4
> CC1CCCN(c2ccc3nc4ccccc4c(=O)n3n2)C1 (stereo not drawn)
→ ?, 15, 12, -3, -67*, -1.0

Next part (2 carried over from the part before).
Values run as follows: TRPV1 PAM, CtBP-E1A blk, D2 PAM, TRPML1 inh, Six1-Eya2 inh, TRPML1 ag
> COc1ccccc1C1CC(c2cccs2)=Nc2ccccc2S1 (stereo not drawn)
→ 21, -10, -34, 4, -18, -0.4
> CC1CCCN(c2ccc3nc4ccccc4c(=O)n3n2)C1 (stereo not drawn)
→ ?, 15, 12, -3, -67*, -1.0
> O=C(Cc1ccccc1)NCC(=O)N1CCN(c2ccccc2)CC1
→ 6, 10, -13, -11, -9, -0.8
> COC(=O)c1cncc(C)c1
→ -1, ., -3, 2, 2, -0.4
> CC(C)COCC(O)CC(Cc1ccccc1)C(=O)NN (stereo not drawn)
→ 4, 7, 0, 5, -3, -0.9
> Cc1ccccc1C(=O)Nc1sc2c(c1C(=O)O)CCC2
→ 6, -5, -5, 11, -4, 1.4
> COc1cc(CC(NC(C)=O)C(=O)NC2CCN(c3c(Cc4ccccc4)c(C)nc4ncnn34)CC2)cc(OC)c1 (stereo not drawn)
→ 14, 14, 8, -1, 12, 0.0
> Cc1cc(N2CCCCC2)n2nc(C)c(-c3ccccc3)c2n1
→ -8, 40, -2, 5, 39, 0.1
> Cc1nc2cc(C(F)(F)F)ccc2n1C1CCN(CC(=O)NC(C)(C)C)CC1
→ 8, 5, -6, 7, 0, 1.1
> O=S1(=O)N[C@H](Cc2ccccc2)COc2cccc(N3CCSCC3)c21
→ ., -26, ., ., 1, -0.3
> O=C(NC(=S)NCc1ccccc1)c1ccccc1F
→ 6, 9, -12, 11, 20, 2.8
> CC[C@@H]1[C@H]2CCCC(=O)N3CC[C@@H](C[C@H]1O)[C@@H]23
→ ., ., -3, -17, 8, 0.3&-0.5
> O=C(Oc1ccc2c3c(c(=O)oc2c1)CCCC3)c1ccco1
→ 1, -7, -2, 2, -23, -0.1
> CCOC(=O)c1cc(OC)c2cccc(CN3CCCC(C)(C(=O)NCCOC)C3)c2c1 (stereo not drawn)
→ ., 19, -3, 88, 13, 1.1
> N/C(=N\O)c1ccc(N2CCN(c3ncccc3C(F)(F)F)CC2)nc1
→ 0, -2, 19, -5, 3, 1.3
> Cc1cccc(OCCC(=O)Nc2ccc(S(=O)(=O)N3CCCC3)cc2)c1
→ -4, 14, -3, 40, 2, -0.6
> Cc1ccc(N(CCC#N)C(=O)CSc2nc3ccccc3c(=O)[nH]2)cc1
→ 6, 3, -1, -6, 3, 1.9
> C/C(CCc1ccc2c(c1)OCO2)=N\NC(=S)NC(C)C
→ 0, 8, -2, 6, -1, 1.2
> Cc1ccc(NC(=O)c2ccc3ccccc3n2)cc1S(=O)(=O)N(C)C
→ -7, 12, -6, 22, -8, 0.1
> O=C(OCC(=O)N1CCCC1=O)c1cc(Cl)ccc1O
→ 9, 4, -2, 26, 1, -0.7
> COc1ccccc1C(=O)N1CCN(Cc2ccc3c(c2)OCO3)CC1
→ 4, -3, -29, 17, -1, -0.9
> COC(=O)c1ccc(C2c3[nH]c4ccccc4c3C[C@H]3C(=O)N(C)CC(=O)N23)cc1 (stereo partly drawn)
→ -5, 0, -2, -12, -3, 0.1
> O=C(NCCN1CCOCC1)c1ccc(/C=C2\Sc3ccccc3N(Cc3ccccc3F)C2=O)cc1
→ 2, ., -8, 19, -5, 0.9
> O=[N+]([O-])c1cccc(C2=NC(c3ccccc3)CO2)c1 (stereo not drawn)
→ 4, -19, -13, -11, 5, -0.1
> COc1ccc(NC(=O)C(NS(=O)(=O)c2cccs2)C(C)C)cc1Cl (stereo not drawn)
→ 12, 0, -7, -11, -7, -0.5
> COc1ccc2c(c1OC)C(=O)N(c1nccs1)C2
→ ?, -5, -10, 15, -3, 0.2
> O=C(CCNS(=O)(=O)c1cccs1)NCc1ccco1
→ -39, -4, -12, 4, -4, 4.4
> O=C(COC(=O)c1ccccc1NC(=O)c1ccccc1)c1ccc([N+](=O)[O-])cc1
→ 8, -6, 28, 26, -17, -0.4
> COc1ccc(CSc2nnc(C)n2N)cc1Br
→ 7, 4, -27, -5, 4, -0.3
> Nc1c(NCCc2ccccc2)c2ccccc2oc1=O
→ 4, -18, -3, 11, -9, 1.1
> Cc1cc(S(=O)(=O)N2CCOCC2)ccc1OCC(=O)NCc1ccccn1
→ -7, -1, -4, 9, -20, -1.6
> CCc1ccc(NC(=O)c2ccc(F)c(S(=O)(=O)N(CC)c3ccccc3)c2)cc1
→ -8, 21, -32, 5, 1, 2.2
> Cn1nc(-c2ccccc2)c(CSc2cccc(Cl)c2)c1Cl
→ 6, 41, -25, 57, 48, 2.7
> Nc1nnn(CC(=O)N/N=C/c2ccco2)n1
→ 6, ., 11, 22, 5, 0.6
> CCCC12CN3CC(C)(CN(C1)C31C(=O)Nc3ccc(C)cc31)C2=O (stereo not drawn)
→ 1, -9, 9, 4, -1, -0.1
> O=C(Nc1cccc(C(=O)N2CCCC2)c1)C1CC1
→ ., -9, -7, 10, 1, 0.6
> O=C(NC1CCCc2ccccc21)C1CCN(S(=O)(=O)c2cnc[nH]2)CC1 (stereo not drawn)
→ -4, -1, 3, 3, -1, -0.1
> CC(=O)c1ccc(N2CCN(C(=O)Cn3cnc(S(=O)(=O)N4CCCCC4)c3)CC2)cc1
→ -1, -2, -1, -21, 1, 0.0
> Cc1ccccc1CSc1nnc(-c2ccccc2)c(=O)[nH]1
→ 8, 7, -6, 19, 7, 2.1
> O=C(COc1ccc2ccccc2c1Br)NCc1ccccn1
→ 4, -20, -48, -8, 12, 0.2
> O=C(NCC(=O)N1CCCCCC1)c1ccc(Br)cc1
→ 2, 1, -2, -10, 2, -0.7
> CCN(CC)CCN(C(=O)CN1C(=O)c2ccccc2C1=O)c1nc2cc3c(cc2s1)OCO3
→ 1, -83*, -35, 11, -10, 2.2

Whole records, quoted from the list. Values in the order: TRPV1 PAM	CtBP-E1A blk	D2 PAM	TRPML1 inh	Six1-Eya2 inh	TRPML1 ag
Listed for O=C(NC1CCCc2ccccc21)C1CCN(S(=O)(=O)c2cnc[nH]2)CC1 (stereo not drawn) = -4	-1	3	3	-1	-0.1
Listed for O=C(COC(=O)c1ccccc1NC(=O)c1ccccc1)c1ccc([N+](=O)[O-])cc1 = 8	-6	28	26	-17	-0.4
Listed for Cc1cc(S(=O)(=O)N2CCOCC2)ccc1OCC(=O)NCc1ccccn1 = -7	-1	-4	9	-20	-1.6

More results.
Values run as follows: TRPV1 PAM, CtBP-E1A blk, D2 PAM, TRPML1 inh, Six1-Eya2 inh, TRPML1 ag
> COc1ccc(/C=C2\SC(=S)N(CCC(=O)N3CCCCC3)C2=O)cc1
→ 0, 4, -24, -15, 7, 0.5
> CCc1ccc(N(C(=O)c2snc(C(N)=O)c2N)C(C(=O)NC2CCCC2)c2ccncc2)cc1 (stereo not drawn)
→ 6, -5, 0, -19, 0, -0.2
> CNC(=O)/C(=C/c1ccc2c(c1)OCO2)NC(=O)c1ccc(Br)cc1
→ -7, -7, -10, -15, 1, -0.2
> CCCn1c(N)c(C(=O)CN2CCN(S(=O)(=O)c3cccc(Cl)c3)CC2)c(=O)[nH]c1=O
→ ., 11, 0, 74, 0, 1.2
> Cc1ccc(N=C2C(=O)Nc3ccc(Br)cc32)cc1
→ -5, -3, -39, 6, -6, 0.4
> CC1CCc2sc(C(=O)N3CCN(c4ncccn4)CC3)cc2C1 (stereo not drawn)
→ ., 3, -1, 12, -1, 1.0
> CCOC(=O)C1CN(S(=O)(=O)c2ccccc2)c2cc(S(=O)(=O)CC)ccc2O1 (stereo not drawn)
→ -21, 11, -5, 12, 0, 0.1
> COc1ccccc1NS(=O)(=O)c1cc(NC(=O)c2ccccc2C)ccc1N1CCOCC1
→ ., 15, -5, 41, -5, -0.1
> COc1ccc(C(=O)Nc2c(N)nc(SCC(=O)Nc3ccc(NC(C)=O)cc3)[nH]c2=O)cc1OC
→ 3, 0, 0, -17, -10, -0.6

Screening results deposited in PubChem by National Center for Advancing Translational Sciences (NCATS).

Random draw from the library; any-hit rate near 0.95%.
